# PV pol inh – poliovirus RdRp elongation inhibitors, primary screen, biochemical, fluorescence polarization, total intensity | % elongation, % (compound at 16.7 µg/mL) | Genome polyprotein (Poliovirus type 1 (strain Mahoney)), P03300 | poliovirus polymerase elongation; stronger effect = lower value | hit rate 0.66% among 150,000 | AID 588519, 2011; in the data active = % elongation below about 90%; note: some results filed as inactive read as strong as hits
# Target sequence (P03300 1749-2209 limits assumed): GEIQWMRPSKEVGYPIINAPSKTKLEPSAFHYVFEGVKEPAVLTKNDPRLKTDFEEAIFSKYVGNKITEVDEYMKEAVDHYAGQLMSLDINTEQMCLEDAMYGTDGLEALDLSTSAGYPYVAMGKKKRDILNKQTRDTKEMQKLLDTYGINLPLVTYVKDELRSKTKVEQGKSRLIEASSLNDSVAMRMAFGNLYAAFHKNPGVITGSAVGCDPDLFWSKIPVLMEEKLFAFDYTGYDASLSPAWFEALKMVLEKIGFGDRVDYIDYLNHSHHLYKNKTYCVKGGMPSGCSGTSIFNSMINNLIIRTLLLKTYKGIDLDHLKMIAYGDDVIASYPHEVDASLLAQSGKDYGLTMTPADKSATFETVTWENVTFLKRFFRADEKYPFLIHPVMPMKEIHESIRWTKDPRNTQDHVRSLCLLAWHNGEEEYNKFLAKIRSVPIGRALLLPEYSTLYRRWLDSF
# MbtI inh – MbtI salicylate synthase inhibitors, primary screen, biochemical, fluorescence intensity. P9WFX0. purified MbtI enzyme, fluorescence intensity read-out. inhibition, %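 (about 17 µg/mL by stock and volumes)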. hit rate 0.89% among 100,000;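 active = above 50% in both replicates, above 80% if mildly self-fluorescent; inactive = the rest, strongly fluorescent compounds included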;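 note: 0% = mean of negative and 100% = mean of positive controls; one replicate is shown; some compounds called inactive have numbers as strong as hits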
# Mtb MenB inh – M. tuberculosis MenB inhibitors, primary screen, biochemical, absorbance | 1,4-dihydroxy-2-naphthoyl-CoA synthase (Mycobacterium tuberculosis (strain ATCC 25618 / … | MenB enzyme assay, absorbance read-out; some hits fall short of the stated cut | inhibition, %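 (about 12 µg/mL by stock and volumes)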 | hit rate 0.43% among 100,000 | AID 540299, 2011;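 active = mean of two replicates above 30%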;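 note: 0% = no compound and 100% = wells with inactive enzyme; the first replicate is given; strong numbers were not always called active; inactives centre near -10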
# Target sequence (P9WNP5 whole entry, looked up): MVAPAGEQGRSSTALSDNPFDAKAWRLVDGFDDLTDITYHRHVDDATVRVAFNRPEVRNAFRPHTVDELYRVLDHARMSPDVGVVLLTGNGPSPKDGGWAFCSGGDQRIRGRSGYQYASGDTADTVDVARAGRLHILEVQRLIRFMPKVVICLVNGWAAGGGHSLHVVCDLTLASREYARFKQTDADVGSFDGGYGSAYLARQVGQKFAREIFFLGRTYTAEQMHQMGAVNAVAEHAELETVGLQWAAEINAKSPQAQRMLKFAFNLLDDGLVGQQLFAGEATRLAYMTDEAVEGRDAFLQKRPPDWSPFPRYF
# PV pol inh intensity – recorded beside PV pol inh, whose call it bears; % elongation; measured here: total intensity read-out; formula for this scale not given here;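 total fluorescence in place of polarization; lower means less elongation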
# Starred values were filed as active, the others as inactive; . = no result given.
molecule	MbtI inh	PV pol inh	PV pol inh intensity	Mtb MenB inh
CC(C)(C)C(=O)N1CCC(C(=O)NCc2ccco2)CC1	-1	101	96	-24
NC(=O)C1(c2ccccc2)CCCC1	-5	102	103	-15
O=C(OCc1cc(=O)oc2cc(O)ccc12)c1ccc(Br)o1	-3	100	94	-10
CC1CCN(C(=O)Nc2ccccc2C(F)(F)F)CC1	.	103	108	-4
Cc1cc(=O)[nH]n(-c2ccccc2)c1=O	44	104	105	-4
Cn1c(=O)[nH]c(=O)c2cc(C(=O)c3cc(F)ccc3O)cnc21	-3	103	112	-4
CCN1CCN(C(=O)c2ccc(-c3ccccc3)cc2)CC1	-1	104	98	.
O=C1CCC(=O)N1N1C(=O)c2ccccc2C1=O	-13	100	101	-32
CCN(CC)S(=O)(=O)c1ccc(-c2cn3ccccc3n2)cc1	104	101	103	1
O=C(c1noc2c1CCc1sccc1-2)N1CCCCC1	17	101	98	-25
C#CCOC(=O)Nc1ccc(Oc2ccc(Cl)cc2)nc1	0	104	101	-14
CC1=CC(C)(C)C(C(=O)O)C(C(=O)O)C1 (configuration not stated)	.	103	109	-5
CC(C)C(Sc1nnc(-c2ccccc2)n1-c1ccccc1)C(=O)NC(N)=O (configuration not stated)	4	103	107	-14
O=c1cc(-c2nc3ccccc3s2)oc2ccccc12	-8	103	102	.
COC(=O)CC1(C(=O)OC)Oc2ccc(Br)cc2C(=O)N1c1ccc(F)cc1F (configuration not stated)	-6	102	116	-5
CCOC(=O)c1cccc(NC(=O)CCc2ccccc2)c1	.	104	99	5
Clc1ccc(CSc2nncn2-c2ccc3c(c2)OCCO3)cc1	.	104	103	-21
CC1CCCN(CCCNS(=O)(=O)c2ccc(-c3ccc(=O)[nH]n3)o2)C1 (configuration not stated)	106	101	102	-15
Nn1c(SCC(=O)NCc2ccc3c(c2)OCO3)nnc1C1CC1	81*	104	102	14
CN(C)c1ncc(C(=O)O)cn1	108	100	103	10
O=C(c1ccc2cn[nH]c2c1)N1CCC2(CC1)OCCO2	-11	99	103	3
CCOC(=O)c1c(Cl)nc2ccccc2c1Cl	-3	102	104	-11
CC1(C)C2CCC1(CS(=O)(=O)N1CCCc3ccccc31)C(=O)C2 (configuration not stated)	-5	98	104	-12
O=c1c2ccccc2nc(-c2ccccc2)n1-c1ccccc1	.	105	111	-13
CC(=O)N[C@@H](C)C(=O)N1CCN(S(=O)(=O)c2ccc(Cl)cc2)CC1	5	105	95	14
O=C(Nc1n[nH]c(C2CCCCC2)n1)C1CCCCC1	-3	100	101	3
O=C(COc1ccc(Cl)cc1)CC(=O)c1ccc(Cl)cc1	-14	102	101	-28
Nn1c(CCC2CCCCC2)n[nH]c1=S	86*	81*	89*	-63
Cc1ccccc1Cn1c(-c2cccs2)noc1=O	-5	102	93	-14
CCn1c(SCc2cc(=O)oc3cc(O)ccc23)nc2ccccc21	-3	109	110	-31
COC(=O)c1ccc(OC(=O)C(C)C)cc1	-18	98	102	8
Cc1cc(-c2ccc(C)c(S(=O)(=O)N3CCCN(Cc4ccc(F)cc4)C3)c2)on1	10	102	100	-19
Cc1cc(NC(=O)NN2CCOCC2)nn1-c1c(Cl)cc(Cl)cc1Cl	-2	101	100	6
CCCN(CCC)c1nc(OC)nc(OC)n1	-1	100	101	-12
Cc1cccc(OCc2nnc(SCc3csc(Nc4ccccc4C)n3)o2)c1	35	115	120	-34
Cc1ccc(S(=O)(=O)c2nc(C(C)(C)C)oc2N2CCOCC2)cc1	-9	100	104	-9
COc1ccc(CCNC(=O)COc2cc(C)c3ccccc3n2)cc1	0	105	105	.
O=C1c2ccccc2-c2nc(-c3ccccc3)cc3cccc1c23	-12	101	107	-1
COc1ccc(C2c3cc4c(cc3OC(C)(N3CCCC3)C2C)OCO4)cc1 (configuration not stated)	.	115	110	-20
COc1ncnc2sc(-c3ccccc3)cc12	-32	102	106	.
O=C(O)/C=C/C(=O)N(Cc1ccccc1)Cc1ccccc1	11	100	100	-19
COC(=O)c1c(N)sc(C(=O)N2CCCC2)c1C	4	101	102	-5
O=C(NCc1ccc(N2CCOCC2)cc1)c1cc(F)cc2c1OCOC2	-20	107	116	-12
CCCCN(Cc1ccco1)S(=O)(=O)c1c[nH]c(C(=O)OC)c1	-4	102	101	-2
Cc1nc2sccn2c1/C=N/NC(=O)C12CC3CC(CC(C3)C1)C2	-5	104	111	-15
O=C(CSC(=O)c1ccccc1)Nc1ccc(Br)cc1F	44	98	101	.
COc1cc(CN(C)C(C)C(=O)NC2CCCCC2)ccc1OC(F)F (configuration not stated)	5	102	104	4
CCOC(=O)c1cnc(Nc2ccccc2)nc1C(F)(F)F	2	101	101	-6
COc1cc(C(=O)Nc2cccc(C#N)c2)ccc1OC(F)F	-5	103	111	-15
Cc1ccc(C(=O)Oc2c(CN3CCN(C)CC3)cc(Cl)c3cccnc23)cc1	-12	102	107	3

# The list continues.
molecule	MbtI inh	PV pol inh	PV pol inh intensity	Mtb MenB inh
S=C(Nc1cccc(Cl)c1)N1CCCN(Cc2ccccc2Cl)C1	-11	101	106	-5
COc1cc(/C=C2/C(=O)Nc3cc(Cl)ccc32)cc(OC)c1O	-4	111	111	-42
Cc1ccc(NC2SC(=O)NC2=O)cc1Cl (configuration not stated)	-9	101	104	3
COC(=O)CC[C@@H](C)[C@H]1CC[C@H]2[C@@H]3CC[C@@H]4C[C@H](O)CC[C@]4(C)[C@H]3C[C@H](O)[C@]12C	.	106	103	-40
CC1CN(C(=O)C(C)Sc2nnnn2C)CC(C)O1 (configuration not stated)	-7	102	95	-36
Cn1cnnc1SCc1nc2ccccc2c(=O)n1CC#N	2	105	107	-6
CCN(c1ccccc1)S(=O)(=O)c1ccc2[nH]c(=O)cc(C)c2c1	6	.	.	-10
CSc1sc(-c2ccn[nH]2)c(-c2ccco2)c1C#N	-12	107	110	-11
Cc1cccn2c(=O)cc(CN3CCC(C(=O)N4CCOCC4)CC3)nc12	-2	107	115	-9
Cc1ccc(NC(=O)Nc2ccc3c(c2)N(C)C(=O)CS3)cc1	-6	104	108	-15
O=C(COc1ccc2ccccc2c1)c1ccc(O)cc1O	0	101	105	.
CCCNC(=O)Nc1ccc(I)cn1	-5	100	102	-16
O=C(c1ccccc1Nc1ccc(SC(F)F)cc1)N1CCCCC1	-2	104	103	-31
Cc1ccc(Cl)cc1N1CCN(CCNC(=O)CCc2nnc3n(CC(C)C)c(=O)c4ccccc4n23)CC1	-6	102	103	1
CCc1nnc(SCc2nc(-c3ccccc3F)oc2C)c2cc3oc(C)cc3n12	1	103	102	-2
CN(c1ccccc1C(=O)N1CCN(Cc2ccc3c(c2)OCO3)CC1)S(C)(=O)=O	-6	101	99	-16
O=C1c2ccccc2C(=O)N1CCCSc1nccn1-c1cc(Cl)ccc1Cl	-8	105	104	-23
CN(C(=O)CSc1nnc(N)s1)c1ccccc1	-3	100	104	-22
CCCCS(=O)C1CCCCC1OC(=O)c1ccccc1 (configuration not stated)	.	107	108	-6
CCOC(=O)C1=C(c2ccccc2)Nc2ncnn2C1c1ccncc1 (configuration not stated)	-21	100	102	-11
Cc1nn(-c2ccccc2)c(Cl)c1CSc1nnc(N)s1	7	105	102	7
COc1ccc(N2CCN(C(=S)Cc3ccccc3)CC2)cc1	10	.	.	-42
COc1ccc(CC(=O)NCC2COc3ccccc3O2)cc1OC (configuration not stated)	-11	102	106	2
O=C(O)c1cc(-c2ccccc2)on1	-4	106	100	0
O=C(Nc1ccc(Cl)cc1)NC1CC2CCC1C2 (configuration not stated)	-12	103	101	-16
CC(C)C(=O)Nc1ccc(N2CCN(C(=O)c3ccccc3)CC2)cc1	-9	100	100	-32
O=C(Nc1nccs1)c1ccc(CSc2ccccc2)o1	12	98	102	-10
COc1cccc(CN(Cc2ccco2)C(c2ccc(OC)c(OC)c2)c2nnnn2Cc2ccccc2)c1 (configuration not stated)	-2	101	102	-46
CCCCCn1nc(C)c(/C=N\NC(=O)c2cccs2)c1C	15	103	101	-32
O=C1S/C(=C\c2cccs2)C(=O)N1Cc1ccccc1	-1	103	101	6

# Laid out differently: entries from further up.
# Screens in order: MbtI inh | PV pol inh | PV pol inh intensity | Mtb MenB inh
O=C(c1ccccc1Nc1ccc(SC(F)F)cc1)N1CCCCC1
 : -2 | 104 | 103 | -31
Cc1ccc(Cl)cc1N1CCN(CCNC(=O)CCc2nnc3n(CC(C)C)c(=O)c4ccccc4n23)CC1
 : -6 | 102 | 103 | 1
CCc1nnc(SCc2nc(-c3ccccc3F)oc2C)c2cc3oc(C)cc3n12
 : 1 | 103 | 102 | -2
CN(c1ccccc1C(=O)N1CCN(Cc2ccc3c(c2)OCO3)CC1)S(C)(=O)=O
 : -6 | 101 | 99 | -16
O=C1c2ccccc2C(=O)N1CCCSc1nccn1-c1cc(Cl)ccc1Cl
 : -8 | 105 | 104 | -23
CN(C(=O)CSc1nnc(N)s1)c1ccccc1
 : -3 | 100 | 104 | -22
CCCCS(=O)C1CCCCC1OC(=O)c1ccccc1 (configuration not stated)
 : . | 107 | 108 | -6
CCOC(=O)C1=C(c2ccccc2)Nc2ncnn2C1c1ccncc1 (configuration not stated)
 : -21 | 100 | 102 | -11
Cc1nn(-c2ccccc2)c(Cl)c1CSc1nnc(N)s1
 : 7 | 105 | 102 | 7
COc1ccc(N2CCN(C(=S)Cc3ccccc3)CC2)cc1
 : 10 | . | . | -42
COc1ccc(CC(=O)NCC2COc3ccccc3O2)cc1OC (configuration not stated)
 : -11 | 102 | 106 | 2
O=C(O)c1cc(-c2ccccc2)on1
 : -4 | 106 | 100 | 0
O=C(Nc1ccc(Cl)cc1)NC1CC2CCC1C2 (configuration not stated)
 : -12 | 103 | 101 | -16
CC(C)C(=O)Nc1ccc(N2CCN(C(=O)c3ccccc3)CC2)cc1
 : -9 | 100 | 100 | -32
O=C(Nc1nccs1)c1ccc(CSc2ccccc2)o1
 : 12 | 98 | 102 | -10
COc1cccc(CN(Cc2ccco2)C(c2ccc(OC)c(OC)c2)c2nnnn2Cc2ccccc2)c1 (configuration not stated)
 : -2 | 101 | 102 | -46
CCCCCn1nc(C)c(/C=N\NC(=O)c2cccs2)c1C
 : 15 | 103 | 101 | -32
O=C1S/C(=C\c2cccs2)C(=O)N1Cc1ccccc1
 : -1 | 103 | 101 | 6

# New compounds follow
molecule	MbtI inh	PV pol inh	PV pol inh intensity	Mtb MenB inh
Nc1ccc(S(=O)(=O)Nc2ccc(I)cc2)cc1	-7	104	110	.
Cn1c(O)c(N=NC=C2C(=O)CC(C)(C)CC2=O)c2ccccc21	-7	102	93	-1
CCOc1ccc(NC(=O)COC)cc1	-11	103	102	-29
O=C(COC(=O)c1cc(NS(=O)(=O)c2cccs2)ccc1O)NC1CCCC1	3	107	108	-19
O=C(CC1CC(=O)Oc2ccccc21)NCc1ccccc1 (configuration not stated)	-10	100	101	10
CC1CCCC(C)N1CCCNC(=O)Cn1c(=O)c2cccn2c2ccccc21 (configuration not stated)	-1	104	97	-34
COC(=O)c1ccccc1NC(=O)COC(=O)c1ccccc1F	-2	107	109	-12
CN1CCN(c2ccccc2NC(=O)c2cc3ccccc3o2)CC1	9	100	104	2
Cc1ccc(NC(=O)CN(C)C(=O)/C=C/c2ccco2)cc1	6	107	111	-16
Cc1ccc(OCCN2CCN(c3c4c(c(C#N)c5nc6ccccc6n35)CCC4)CC2)cc1	0	100	104	14
O=C(CSc1nnnn1-c1ccc(O)cc1)NC(=O)NC12CC3CC(CC(C3)C1)C2	106	108	111	-16
Cc1cc(C)cc(Oc2coc3cc(OC(=O)C4CCCCC4)ccc3c2=O)c1	7	103	106	-14
O=C(COc1ccc(-c2ccccc2)cc1)N1CCN(c2ccccc2)CC1	-17	100	102	-10
CC(=O)n1nc(C)cc1-c1ccccc1	.	104	102	-5
CC1(C)CC(=O)C(=CN2CCN(C(=O)c3ccco3)CC2)C(=O)C1	5	100	103	-6
Cc1[nH]c2ccccc2c1C(=O)CSc1cccc[n+]1[O-]	4	101	103	.
CCN(C(=O)CSc1nnc(CSc2nc3ccccc3s2)n1C)C1CCCCC1	-5	104	111	-17
O=C(CCCc1nc(-c2ccccc2)no1)NCc1cccnc1	11	100	102	-12
CSc1nnc(COc2ccc(Br)cc2)n1Cc1ccccc1	-23	100	102	11
Cc1cc(C)n(CC(O)CN2C(=O)NC(C)(C)C2=O)n1 (configuration not stated)	-3	104	106	-2
COc1cccc(C=Nc2ccc3c(c2)ncn3C)c1OC	-192	101	102	-3
CC(C)=CCC[C@](C)(O)C1CC=C(C)CC1 (some centres not stated)	-6	99	99	3
CCC(C)NC(=O)c1c(O)c2cccc3c2n(c1=O)CCC3 (configuration not stated)	4	99	102	5
Cc1ccc2nc(CCC(=O)N3CCCCCC3)[nH]c2c1	-1	103	104	-12
O=C(O)C1CC(O)CN1Cc1ccccc1 (configuration not stated)	.	102	100	-18
CN(C)C(=O)NC1CCS(=O)(=O)C1 (configuration not stated)	-10	99	111	-8

# Bioassay records (PubChem)
